Polio RdRp inh = inhibitors of poliovirus RNA polymerase binding and polymerization | % elongation, % (compound at 16.7 µg/mL) | poliovirus polymerase elongation, fluorescence polarization; stronger effect = lower value | 150,000 tested, 0.66% active | AID 588519 | P03300; in the data active = % elongation below about 90%; note: some results filed as inactive read as strong as hits
Target sequence (P03300 1749-2209 limits assumed): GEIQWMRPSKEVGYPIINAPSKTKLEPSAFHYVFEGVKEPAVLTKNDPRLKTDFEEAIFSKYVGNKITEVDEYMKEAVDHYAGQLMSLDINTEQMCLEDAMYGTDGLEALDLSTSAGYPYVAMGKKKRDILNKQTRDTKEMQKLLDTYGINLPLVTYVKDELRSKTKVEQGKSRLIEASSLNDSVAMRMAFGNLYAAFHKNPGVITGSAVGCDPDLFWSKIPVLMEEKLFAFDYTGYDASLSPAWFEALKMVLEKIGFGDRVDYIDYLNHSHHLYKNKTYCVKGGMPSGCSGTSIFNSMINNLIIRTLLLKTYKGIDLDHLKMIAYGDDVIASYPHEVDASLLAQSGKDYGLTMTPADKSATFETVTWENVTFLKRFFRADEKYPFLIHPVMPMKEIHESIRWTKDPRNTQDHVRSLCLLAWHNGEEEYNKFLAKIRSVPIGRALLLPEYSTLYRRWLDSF
Polio RdRp inh intensity = second read-out of Polio RdRp inh, no call of its own (marks repeat the call); % elongation; measured here: total intensity read-out; formula for this scale not given here;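 total fluorescence in place of polarization; lower means less elongation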
An asterisk follows results filed as active.

Start of the data: the first 6 compounds, to show the layout:
Each structure is followed by: Polio RdRp inh | Polio RdRp inh intensity
- COc1ccc(-c2cc3nc(C)c(CCC(=O)Nc4ccccc4C(C)=O)c(C)n3n2)c(OC)c1
  114 | 112
- Cc1ccc(CSc2oc(-c3ccco3)nc2S(=O)(=O)c2ccc(Cl)cc2)cc1
  107 | 109
- CC(CNC(=O)CN1C(=O)COc2ccc(S(=O)(=O)N3CCCCCC3)cc21)c1ccccc1 (stereo not given)
  107 | 114
- COc1ccccc1C(=O)Oc1c(Sc2ccccc2)c(C)nn1C(C)(C)C
  109 | 110
- CCOc1ccc(-c2cc(CCCC(=O)NCCc3cc(OC)c(OC)c(OC)c3)no2)cc1
  107 | 108
- COCCCn1c(SCc2ccccc2F)nc2c(sc3ccccc32)c1=O
  112 | 111

The whole of this part, previewed entries included:
Each structure is followed by: Polio RdRp inh | Polio RdRp inh intensity
- COc1ccc(-c2cc3nc(C)c(CCC(=O)Nc4ccccc4C(C)=O)c(C)n3n2)c(OC)c1
  114 | 112
- Cc1ccc(CSc2oc(-c3ccco3)nc2S(=O)(=O)c2ccc(Cl)cc2)cc1
  107 | 109
- CC(CNC(=O)CN1C(=O)COc2ccc(S(=O)(=O)N3CCCCCC3)cc21)c1ccccc1 (stereo not given)
  107 | 114
- COc1ccccc1C(=O)Oc1c(Sc2ccccc2)c(C)nn1C(C)(C)C
  109 | 110
- CCOc1ccc(-c2cc(CCCC(=O)NCCc3cc(OC)c(OC)c(OC)c3)no2)cc1
  107 | 108
- COCCCn1c(SCc2ccccc2F)nc2c(sc3ccccc32)c1=O
  112 | 111
- Cc1ccc(Cl)cc1NC(=O)c1ccc(NC(=O)N2CCSc3ncccc32)cc1
  107 | 111
- CCN(CC)c1cccc(C(=O)O)n1
  103 | 99
- COc1cccc(N2CCN(C(=O)C3CCCN(S(=O)(=O)c4ccc(Br)s4)C3)CC2)c1 (stereo not given)
  111 | 113
- CCc1cccc(NC(=O)Nc2cn(C)c(=O)c3ccccc23)c1
  79* | 77*
- O=C1CN(C(=O)COc2ccc(Cl)cc2Cl)C(c2ccccc2)c2cc(F)ccc2N1 (stereo not given)
  109 | 104
- O=C(C1CCN(S(=O)(=O)c2ccc(Br)s2)CC1)N1CCN(c2ccccc2)CC1
  111 | 111
- O=C1CN(C(=O)c2ccc(S(=O)(=O)N3CCCCC3)cc2)C(c2ccc(F)cc2)c2cc(F)ccc2N1 (stereo not given)
  107 | 107
- CCOC(=O)c1[nH]c(C)c(CCC(=O)Nc2c(C)cc(C)cc2C)c1C
  100 | 97
- COc1ccc(CCNc2ncnc3c2c(-c2ccccc2)cn3-c2cccc(Cl)c2)cc1OC
  110 | 110
- COC(=O)c1cc(S(=O)(=O)NCC2CCN(Cc3ccc(C)cc3)CC2)cn1C
  110 | 112
- O=C(Nc1ccc2nn(-c3ccc(Cl)cc3)nc2c1)c1cc2ccccc2o1
  107 | 108
- CCOC(=O)c1c(C)oc2nc(C)nc(NCc3ccc(Cl)cc3)c12
  122 | 126
- COc1cccc(C(=O)NCC(c2ccc(N(C)C)cc2)N2CCCC2)c1OC (stereo not given)
  112 | 118
- COC(=O)c1ccccc1NC(=O)Cn1c(=O)n(CCC(=O)NCc2ccc3c(c2)OCO3)c(=O)c2ccccc21
  108 | 110
- O=C(Nc1nnc(S(=O)(=O)N2CCCCC2)s1)c1ccc(F)cc1
  102 | 94
- Cc1ccc2c(c1)c(CC(=O)Nc1ccc(C)c(F)c1)c(C(=O)O)n2C
  109 | 114
- CCC1CN(C(=O)NCc2ccccc2)c2cc(C)ccc2O1 (stereo not given)
  112 | 118
- O=C(NCCc1ccc(Cl)cc1)c1ccc2c(c1)N(Cc1ccccc1)C(=O)CS2
  112 | 115
- Cc1cc(Br)ccc1NC(=O)CCS(=O)(=O)c1cccc2nsnc12
  101 | 97
- CC(=O)N1CCC2(CC1)OC(=O)C(C)=C2C(=O)Nc1cc(C)ccc1C
  108 | 113
- CN(C)c1ccc(C(=O)NCc2ccc3c(c2)CCN3C(=O)c2ccc(Cl)cc2)cc1
  105 | 101
- O=C(Cc1ccccc1)NCCc1csc2nc(-c3ccc(Cl)cc3)nn12
  106 | 105
- COc1ccc(CNC(=O)c2ccc3c(c2)N=C(C)c2c(C)ccc(C)c2S3)cc1
  108 | 110
- O=C(Cc1ccccc1)Nc1c(C(=O)N2CCN(c3ccc(F)cc3)CC2)oc2ccccc12
  110 | 110

(continued)
Each structure is followed by: Polio RdRp inh | Polio RdRp inh intensity
- Cc1ccc(Cl)cc1NC(=O)C1CCCN(c2cnccn2)C1 (stereo not given)
  107 | 100
- COc1ccc(CNC(=O)c2cc3cccc4c3n2CC(C)S4)cc1 (stereo not given)
  112 | 111
- COc1ccc(S(=O)(=O)N(CC(=O)Nc2ccc(Br)cc2)Cc2ccccc2)cc1
  100 | 107
- CCOC(=O)c1c(C)[nH]c(C)c1S(=O)(=O)N1CCCC(C(=O)N2CCN(c3ccc(Cl)cc3)CC2)C1 (stereo not given)
  110 | 105
- O=C(NCCc1ccccc1)c1ccc2c(c1)N(Cc1c(F)cccc1Cl)C(=O)CS2
  101 | 102
- CCOC(=O)Cc1ccc(NC(=O)N2CCC(CN3CCC(C)CC3)CC2)cc1
  102 | 107
- O=C(O)c1ccc(-n2c(/C=C\c3ccc(O)cc3)nc3ccccc3c2=O)cc1
  104 | 107
- COc1ccc(-c2cc3nc(C)c(CCC(=O)NC(C)c4ccccc4)c(C)n3n2)c(OC)c1 (stereo not given)
  108 | 112
- COc1ccc(-c2nc3c(c(SC)n2)Cc2c(CO)cnc(C)c2O3)cc1
  105 | 102
- Cc1ccc(-c2onc(C)c2C)cc1S(=O)(=O)N1CCCCC1
  109 | 113
- Cc1cc(Br)ccc1NC(=O)Cn1cnc2sc(C)c(S(=O)(=O)N3CCN(C)CC3)c2c1=O
  103 | 104
- COc1cccc(CNC(=O)CCn2c(=O)c3cccn3c3cccnc32)c1
  107 | 114
- CCOC(=O)c1scc(-c2ccc(C)cc2)c1S(=O)(=O)Nc1cc(C)ccc1C
  100 | 104
- Cc1nn(CC(=O)N2CCN(c3cccc(Cl)c3)CC2)c(=O)c2c1sc1ccccc12
  107 | 114
- COc1ccc(OC)c(CCNC(=O)c2cnn(-c3ccc(C)cc3C)c2C2CCN(C(=O)OC(C)(C)C)CC2)c1
  105 | 111
- CCOC(=O)C1=C(CS(=O)(=O)c2ccc(C)cc2)NC(=O)NC1c1ccc(C(C)C)cc1 (stereo not given)
  106 | 106
- CCCCOc1ccc(C(=O)Nc2cccc(-c3nc4cccnc4s3)c2)cc1
  111 | 114
- CCC(=O)N1c2ccccc2CC1C(=O)NCCc1ccc(OC)c(OC)c1 (stereo not given)
  101 | 106
- O=C(Nc1ccccc1)c1cccc2c(=O)c3c([nH]c12)CCCC3
  106 | 108
- Cc1nn(C(=O)c2ccc(Br)cc2)c(C)c1S(=O)(=O)N1CCOCC1
  109 | 108
- O=c1c2sc3ccccc3c2n(Cc2cccc(C(F)(F)F)c2)c(=O)n1Cc1ccc(F)cc1
  110 | 104
- COc1ccccc1C(=O)Nc1nnc(SCc2cc(=O)n3ccc(C)cc3n2)s1
  107 | 112
- CC(=O)Nc1c(C)nn(-c2ccccc2)c1N1CCC(C(=O)Nc2cccc(C(F)(F)F)c2)CC1
  112 | 118
- Cc1ccc2c(=O)c(C(=O)c3cccc(Cl)c3)cn(CC(=O)NCc3ccccc3)c2n1
  98 | 103
- CC(=O)c1ccc(N2CCN(c3nc4c(S(=O)(=O)c5ccc(C)c(C)c5)nnn4c4ccc(Cl)cc34)CC2)cc1
  102 | 99
- COc1cccc(NS(=O)(=O)c2ccc3c(c2)[C@H]2C=CC[C@H]2[C@@H](c2ccccc2Cl)N3)c1
  134 | 194
- CCc1cccc(C)c1NC(=O)c1cc2ccccc2o1
  102 | 102
- CCCCN(C)C(=O)c1ccc2c(c1)N(Cc1ccc(F)cc1)C(=O)c1ccccc1S2(=O)=O
  100 | 96
- COc1ccc(N2C(=O)NC(NS(=O)(=O)c3ccc(Cl)cc3)(C(F)(F)F)C2=O)cc1 (stereo not given)
  105 | 104
- COc1cc(CNc2ccc3[nH]c(=O)[nH]c3c2)cc(Br)c1OCc1ccc(F)cc1
  95 | 95

2 successive records from above, for reference:
Each structure is followed by: Polio RdRp inh | Polio RdRp inh intensity
- COc1ccc(N2C(=O)NC(NS(=O)(=O)c3ccc(Cl)cc3)(C(F)(F)F)C2=O)cc1 (stereo not given)
  105 | 104
- COc1cc(CNc2ccc3[nH]c(=O)[nH]c3c2)cc(Br)c1OCc1ccc(F)cc1
  95 | 95

(listing goes on)
Each structure is followed by: Polio RdRp inh | Polio RdRp inh intensity
- COc1cc(NC(=O)Cn2c(=O)n(C(C)C)c(=O)c3oc4ccccc4c32)cc(OC)c1
  105 | 107
- Cc1ccc(/C=C/c2onc(C)c2S(=O)(=O)N2CCC(C(=O)N3CCN(c4cc(C)ccc4C)CC3)CC2)cc1
  102 | 111
- Cc1ccn2c(=O)cc(COc3ccc(NC(=O)COc4ccccc4)cc3)nc2c1
  107 | 110
- COc1ccc(C)cc1NC(=O)C1CCCN(c2ncnc3onc(C)c23)C1 (stereo not given)
  109 | 116
- O=C(CCC1N=C2c3ccccc3N=C(SCc3cccc(F)c3)N2C1=O)NCc1cccs1 (stereo not given)
  109 | 112
- Cc1cc2c(cc1S(=O)(=O)CCC(=O)N1CCC(C)CC1)OCC(=O)N2
  104 | 100
- CCN(CC)CCNC(=O)c1sc2nc3n(c(=O)c2c1C)CCCCC3
  102 | 107
- Cn1c(=O)c2c(nc(NCCc3ccccc3)n2Cc2ccc(Cl)cc2)n(C)c1=O
  107 | 111
- CC1=C(C(=O)Nc2ccccc2)C(c2ccccn2)n2nc(SCc3ccccc3)nc2N1 (stereo not given)
  102 | 108
- COc1ccc(N(C)C(=O)c2cn(C3CCCCC3)c(=O)c3c2c2ccccc2n3C)cc1
  117 | 116
- Cc1cccc(Cn2c(=O)n(Cc3ccccc3)c(=O)c3c2c2cc(C)ccc2n3C)c1
  109 | 109
- CCOC(=O)c1cnc2ccccc2c1Nc1cccc(OC)c1
  104 | 109
- Cc1ccc(-c2onc(C)c2C)cc1S(=O)(=O)N1c2ccccc2CC1C (stereo not given)
  107 | 113
- Cc1ccccc1C(=O)c1cccn1CC(=O)NCc1ccc(Cl)cc1
  105 | 106
- CCOC(=O)c1c(NC(=O)C(C)Oc2ccccc2F)sc(C(C)=O)c1C (stereo not given)
  107 | 107
- CCOC(=O)c1c(C)c(-c2ccccc2)n(CC(=O)Nc2cc(C)cc(C)c2)c1C
  105 | 111
- Cc1ccc(CSc2nc3c(c(=O)[nH]2)C(c2cccc(F)c2F)CC(=O)N3)cc1 (stereo not given)
  102 | 96
- CCC(=O)C1=C(c2ccc(F)cc2)N(C(=O)CC)n2c(nnc2-c2ccc(OC)cc2)S1
  102 | 109
- CC(C)c1ccccc1NC(=O)CSc1nnc(COc2ccccc2)o1
  106 | 108
- COc1ccc(Nc2nc(-c3ccccc3F)nc3ccccc23)cc1OC
  104 | 110
- CCOc1ccc(C(=O)/C=C/c2cn(CC(O)CN3CCc4ccccc43)c3ccccc23)cc1 (stereo not given)
  107 | 109
- Cn1nnnc1SCCNCc1ccc(Cl)c(Cl)c1
  107 | 109
- COc1ccc(CNC(=O)C(C)n2nc(C)c3sc4ccccc4c3c2=O)cc1OC (stereo not given)
  109 | 109
- CCN1CCN(C(=O)c2cnn(-c3ccc(F)cc3)c2-n2cccc2)CC1
  111 | 93
- COc1ccc(CCNC(=O)Cn2c(-c3cccs3)cc3cc(F)ccc32)cc1OC
  107 | 115
- CCOC(=O)c1ccc(CN(Cc2ccc(C)cc2)S(=O)(=O)c2ccc(NC(C)=O)cc2)cc1
  108 | 113
- COc1ccc(CNC(=O)CCc2c(C)nn(-c3ccc(N4CCCC4)nn3)c2C)cc1
  110 | 112
- O=S(=O)(c1ccccc1)c1nnn2c1nc(NCc1ccc(F)cc1)c1sccc12
  106 | 107
- O=C(NCc1ccc(Cl)cc1)c1cnc2sc(N3CCCC3)nn2c1=O
  108 | 115
- O=C(CCC1N=C2c3ccccc3N=C(SCc3ccc(Cl)cc3)N2C1=O)NCCc1ccccc1 (stereo not given)
  105 | 105

(further entries)
Each structure is followed by: Polio RdRp inh | Polio RdRp inh intensity
- O=C(NCc1ccc2c(c1)CCN2C(=O)c1ccncc1)c1ccc(Cl)cc1
  108 | 108
- Cc1ccc(-c2cc(C(F)(F)F)n3ncc(-c4ccccc4)c3n2)cc1
  108 | 109
- CCOC(=O)c1c(NC(=O)CCCOc2ccc(C)cc2)sc2c1CCC(C)C2 (stereo not given)
  98 | 99
- COc1ccc(C(=O)Nc2nc(-c3nnn(-c4ccc(C(C)C)cc4)c3C)ns2)cc1
  103 | 97
- Cc1ccc(-c2cn3c(n2)sc2cc(C(=O)NCCCc4ccccc4)ccc23)c(C)c1
  109 | 108
- COc1ccccc1CNC(=O)CN1C(=O)CSc2ccc(S(=O)(=O)N(C)C)cc21
  106 | 103
- CN(C)CCNC(=O)C1CCN(c2ncnc3c2nc2n3CCCCC2)CC1
  102 | 94
- CCOc1ccc(/C=C/c2nc3ccccc3n2S(=O)(=O)c2ccc(Br)cc2)cc1
  106 | 106
- CCCCS(=O)(=O)c1oc(-c2ccc(F)cc2)nc1S(=O)(=O)c1ccccc1
  103 | 92
- Cc1ccc(-c2nn(CCC(=O)Nc3ccc(OC(F)(F)F)cc3)c(=O)c3ccccc23)cc1
  106 | 105
- CCOc1ccc(-n2c(=O)c3c(C)c(C)sc3n(Cc3cc(=O)n4cc(Cl)ccc4n3)c2=O)cc1
  104 | 108
- Cc1ccc(C(=O)N/C(=C\c2ccc(Cl)cc2)C(=O)NC2CCCCC2)cc1
  96 | 100
- O=c1c(S(=O)(=O)c2ccccc2)cn(Cc2ccc(F)cc2)c2cc(N3CCOCC3)c(F)cc12
  111 | 111
- C#CC(C)(CC)NC(=O)c1cnn2c(C(F)F)cc(-c3ccccc3OC)nc12 (stereo not given)
  101 | 97
- CC(=O)c1ccc(N2CCN(S(=O)(=O)c3ccc4[nH]c5c(c4c3)CCCCC5)CC2)cc1
  113 | 110
- CCCS(=O)(=O)c1nc(S(=O)(=O)c2ccc(C)cc2)c(NCc2ccccc2Cl)s1
  104 | 104
- COc1cccc(C2C(C(=O)Nc3ccc(Cl)cc3)=C(C)Nc3nc4ccccc4n32)c1OC (stereo not given)
  109 | 106
- Nc1c(-c2nc(-c3ccccc3)cs2)c2ccccn2c1C(=O)c1ccc2c(c1)OCO2
  99 | 108

Source: PubChem

Some of the compounds tested (hit frequency here may not be typical).
